From PubChem
NS1 function inh – blocks influenza NS1 protein function. S. cerevisiae slowed by influenza A NS1, growth recovery by OD600. Potency, µM (doses to about 46.1 µM), inactives show top-dose activity, positive = more growth. actives 0.4% (n = 270,000); active means well fitted rising curve with a large enough effect; inconclusive means small, poorly fitted or top-dose-only effect; inactive means no such curve, though single readings can be large or run the other way; also: nearly all actives have a fitted effect of over 50% in size
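S. cerevisiae expressing influenza A NS1, grown in glucose, washed, then diluted 1:100 into pH 6.0 -URA galactose medium with 23 nl compound. Growth recovery read as OD600; NS1-free strain serves as control.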
RE007 growth inh – less growth of the S. pombe RE007 Vpr strain; AID 651644; S. pombe RE007 Vpr strain, BacTiter-Glo ATP luminescence, 24 h; control for the full effect not named in the record; actives 0.21% (n = 360,000); Potency, µM (doses to about 92.2 µM), for the others: at the top dose activity change, negative = less growth; active = well fitted falling curve with a large enough effect; inconclusive = small, poorly fitted or top-dose-only effect; inactive = no such curve, though single readings can be large or run the other way;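 also: % is scaled to controls: 0 for no effect and ±100 for the full control effect; nearly all actives have a fitted effect of over 50% in size; the assay follows cell death caused by Vpr and the record does not say whether a fall means rescue or toxicity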
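Fission yeast strain RE007, carrying one chromosomally integrated HIV-1 vpr copy, was seeded at OD 0.01 in PMG+AL medium with 23 nL pinned compound. After 24 h at 30 °C and 99% humidity, viability was read by BacTiter-Glo luminescence.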
Cruzain inh Det – cruzain (T. cruzi) inhibition with detergent | P25779 | purified cruzain, Z-FR-AMC fluorescence, 0.01% Triton | Potency, µM, for the others: max response, negative = inhibition, most hits filed as inhibitors | actives 0.43% (n = 200,000);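 also: plate controls were neutral wells for no effect and buffer without enzyme for full effect; nearly all actives have a fitted effect of over 40% in size; top concentration of the series not given in the record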
Target sequence (P25779 123-467 limits assumed): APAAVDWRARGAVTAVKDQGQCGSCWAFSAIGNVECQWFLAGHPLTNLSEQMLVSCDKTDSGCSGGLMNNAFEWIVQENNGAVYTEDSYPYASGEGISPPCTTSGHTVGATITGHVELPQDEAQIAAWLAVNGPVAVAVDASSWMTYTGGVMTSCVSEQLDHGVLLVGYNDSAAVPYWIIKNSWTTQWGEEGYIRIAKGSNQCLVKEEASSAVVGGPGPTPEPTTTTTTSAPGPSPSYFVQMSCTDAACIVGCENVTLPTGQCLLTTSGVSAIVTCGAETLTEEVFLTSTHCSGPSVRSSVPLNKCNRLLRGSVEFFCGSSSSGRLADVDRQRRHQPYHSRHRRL
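Compounds were screened in titration against cruzain (1.5 nM) with 0.01% Triton X-100 to counter colloidal aggregation. Activity was the AMC fluorescence increase over 60 s after adding 2 uM Z-FR-AMC at pH 5.5.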
StopGo reporter – FMDV 2A StopGo reporter, luciferase signal. AID 1159524. Potency, µM (doses to about 57.9 µM), without a hit: at the highest dose signal change, negative = less light. actives 1.2% (n = 410,000). human cells with a luciferase reporter of 2A StopGo recoding; control for the full effect not named in the record; active = well fitted falling curve with a large enough effect; inconclusive = small, poorly fitted or top-dose-only effect; inactive = no such curve, though single readings can be large or run the other way; tested in HEK293T cells; also: % is scaled to controls: 0 for no effect and ±100 for the full control effect; nearly all actives have a fitted effect of over 45% in size; luciferase light after 4 h
Lassa entry inh – inhibitors of Lassa virus binding or cell entry | Lassa virus pseudotype entry inhibition, cell reporter; control for the full effect not named in the record | actives 1.2% (n = 300,000) | Potency, µM (series often up to 37.9 µM), for inactives: at the top dose activity change, negative = inhibition, hits mostly inhibitors; active means well fitted inhibition curve with a large enough effect; inconclusive means small, poorly fitted or top-dose-only effect, or effect the other way; inactive means flat fitted curve, though single readings scatter; tested in HEK293 cells; also: % is scaled to controls: 0 for no effect and ±100 for the full control effect; nearly all actives have a fitted effect of over 50% in size; luciferase read-out
MARV entry inh – Marburg virus entry inhibition; Potency, µM (doses to about 37.8 µM), for the others: top-dose activity change, negative = inhibition, most hits filed as inhibitors; AID 540276; actives 1.8% (n = 300,000); Marburg virus pseudotyped entry inhibition, cell reporter; control for the full effect not named in the record; about a third of the inactives were read at about 46 µM; active = well fitted inhibition curve with a large enough effect; inconclusive = small, poorly fitted or top-dose-only effect, or effect the other way; inactive = flat fitted curve, though single readings scatter; tested in HEK293 cells; about a fifth of its hits are not listed in these tables; also: % is scaled to controls: 0 for no effect and ±100 for the full control effect; luciferase read-out
Cruzain inh noDet – cruzain (T. cruzi) inhibition without detergent | P25779 | purified cruzain, Z-FR-AMC fluorescence, no detergent | Potency, µM, for the others: max response, negative = inhibition, actives largely listed as inhibitors | actives 2.3% (n = 200,000) | AID 1476;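 also: plate controls were enzyme without inhibitor for no effect and buffer without enzyme for full effect; nearly all actives have a fitted effect of over 40% in size; top concentration of the series not given in the record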
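Purified cruzain at 1.5 nM, pre-incubated 15 min with compound at room temperature in 100 mM sodium acetate pH 5.5, 5 mM DTT, 0.00005% Triton X-100. Reaction started with 2 uM Z-FR-AMC; AMC fluorescence increase over 60 s gives rate.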
SARS PLP yeast – blocks SARS-CoV papain-like protease in a yeast assay | actives 0.19% (n = 330,000) | Potency, µM (highest dose often 32.9 µM), without a hit: at the top dose activity, positive = growth rescue | S. cerevisiae expressing SARS-CoV PLpro, growth rescue; control for the full effect not named in the record; active means well fitted rising curve with a large enough effect; inconclusive means small, poorly fitted or top-dose-only effect; inactive means no such curve, though single readings can be large or run the other way; also: 0% is about no effect; nearly all actives have a fitted effect of over 55% in size; growth read by luminescence after 48 h
Active calls of the source: *; ? = inconclusive; nt = not tested or not shown; & = joins results of further samples; [ ] = remark or other dose. Unless noted, calls follow the shape of the dose curve; as a rule, active = well fitted curve in the direction sought with a large enough effect; inconclusive = small, poorly fitted or top-dose-only effect, or another doubt; inactive = no such curve, though single readings can be large; an effect the other way counts as inactive or inconclusive. Potency is read from the fitted curve at half-maximal effect.

| item | smiles | StopGo reporter | Cruzain inh noDet | Lassa entry inh | SARS PLP yeast | Cruzain inh Det | NS1 function inh | RE007 growth inh | MARV entry inh |
| --- | --- | --- | --- | --- | --- | --- | --- | --- | --- |
| 1 | COc1ccc(Cn2nnnc2C(c2ccccc2Cl)N2CCN(C3CCCC3)CC2)cc1 (stereo not drawn) | -7% | -10% | -21% | 8% | 4.2% | -8% | -1% | ? |
| 2 | O=C(Nc1ccc(N2CCN(C(=O)c3ccco3)CC2)cc1)c1cccs1 | -10% | -3% | 26% | 2% | -2.1% | 2% | -10% | 0% |
| 3 | COc1ccc(C(C(=O)Nc2ccc(C(C)C)cc2)N(Cc2ccco2)C(=O)CC2NC(=O)NC2=O)cc1 (stereo not drawn) | -21% | nt | ? | 1% | nt | nt | 23% | ? |
| 4 | Cc1c(Cc2ccccc2)c(=O)oc2cc(O)ccc12 | 11% | nt | nt | -1% | nt | -38% | 1% | nt |
| 5 | COc1ccc(C(Nc2ccccc2)P(=O)(Oc2ccccc2)Oc2ccccc2)cc1 (stereo not drawn) | -1% | -17% | -6% | ? | -4.2% | 10% | 6% | -4% |
| 6 | Cc1cc(=O)n(C(C)c2ccccc2)n1C(C)c1ccccc1 (stereo not drawn) | -10% | nt | -11%[46.1 µM] | nt | nt | nt | 9% | -5% |
| 7 | COc1ccc(C)cc1S(=O)(=O)Nc1ccc(-n2c(C)nc3ccccc3c2=O)cc1 | 9% | nt | 9% | 3% | nt | nt | 18% | -19% |
| 8 | Cc1cc(OCC(=O)Nc2ccc(CN3CCOCC3)cc2)c2c(C)c(C)c(=O)oc2c1 | ? | nt | nt | -3% | nt | -2% | -7% | nt |
| 9 | CCCCn1c2nc3ccccc3nc2c2c(=N)oc(C)nc21 | nt | 18% | 4% | 5% | -2.2% | 4% | -14% | 15% |
| 10 | Cc1cc(C(=O)N/N=C/c2cccc(OC(=O)c3cccc(Br)c3)c2)n[nH]1 | 23% | nt | nt | -2% | nt | 4% | 1% | nt |
| 11 | CCCCN(CC)S(=O)(=O)N1CCC(C(=O)NCCCN2CCOCC2)CC1 | 2% | 8% | 4% | -6% | 7.5% | ? | 3% | 33% |
| 12 | Cc1cc(OCC(=O)Nc2ccncc2)c(C)cc1Br | 0% | 2% | 0% | -18% | -4.6% | -81% | -20% | -15% |
| 13 | CCCC(=O)NCc1ccccc1Cl | -4% | nt | ? | 0% | nt | 2% | -3% | -2%[46.1 µM] |
| 14 | COc1ccccc1CC(=O)Nc1ccc([N+](=O)[O-])cc1O | ? | nt | 6.3µM* | -1% | nt | 5% | 63% | ? |
| 15 | CCCOc1ccc(/C(O)=C2/C(=O)C(=O)N(c3cc(C)on3)C2c2ccc(C(=O)OC)cc2)cc1 (stereo not drawn) | -8% | ? | -7% | 4% | -11% | 10µM* | 8% | -12% |
| 16 | CCCn1c(=O)c(C(=O)NCc2ccccc2Cl)c(O)c2ccccc21 | -14% | nt | ? | -5% | nt | 0% | -9% | 1% |
| 17 | CC(=O)N1CCN(c2nc(CC(C)C)c3c(c2C#N)CCC3)CC1 | -6% | ? | ? | -1% | -2.0% | -13% | 8% | -15%&2% |
| 18 | COCC(=O)NCCc1ccc(S(N)(=O)=O)cc1 | nt | -9% | 8% | -7% | 5.3% | 4% | 7% | ? |
| 19 | O=S(=O)(Cc1cc(NCc2ccccc2)nc(-c2ccncc2)n1)c1ccccc1 | -5% | nt | -7% | 0% | nt | 15% | 7% | -6%[46.1 µM] |
| 20 | Cc1ccc(NC(=O)CSc2nc(=O)n(CCCN3CCOCC3)c3c2CCCC3)cc1F | -7% | nt | -16% | -2% | nt | nt | 1% | ? |
| 21 | COc1ccc(S(=O)(=O)N2CCN(C(=O)c3c(C)nn(-c4ccccc4)c3Cl)CC2)cc1 | ? | ? | ? | -4% | 1.4% | -45% | -14% | 0%&0% |
| 22 | CC1CCCCN1C(=O)CSc1nnc(Cc2ccccc2)n1C (stereo not drawn) | 10% | 6% | 20% | -11% | 0.8% | 1% | -1% | 19% |
| 23 | Cc1ccc(S(=O)(=O)Nc2cc(C)cc(CCNC=O)c2C)cc1 | 8% | nt | 11%[46.1 µM] | nt | nt | nt | -4% | 9% |
| 24 | Cc1ccc(NCc2cccn2-c2nnc(N3CCC(C(=O)NC(C)C)CC3)s2)cc1 | -20% | ? | nt | nt | -3.5% | nt | nt | 10%[46.1 µM] |
| 25 | COc1cc(CCC(=O)Nc2cnc3ccccc3c2)cc(OC)c1OC | -10% | nt | nt | -1% | nt | -6% | -6% | nt |
| 26 | CN1C(=O)C(CC(=O)NC2CCCCC2)N(C)C1=O (stereo not drawn) | 4% | nt | ? | 0% | nt | nt | -10% | 1%[46.1 µM] |
| 27 | CCOc1ccc(-c2cc(-c3nc(-c4cc(OC)c(OC)c(OC)c4)no3)[nH]n2)cc1Cl | -27% | -3% | -2%[46.1 µM] | nt | 3.4% | nt | nt | nt |
| 28 | COC(=O)c1sc2nc(C)c([N+](=O)[O-])c(C)c2c1N | 3% | -2% | 18% | 7% | -5.4% | 1% | -2% | -17%[46.1 µM] |
| 29 | CC(C)(C)C(=O)Nc1nnc(-c2ccncc2)o1 | -5% | -13% | -23% | -10% | 1.8% | 7% | -4% | 0% |
| 30 | CCOC(=O)N1CCC(NC(=O)Cn2cc3c(n2)CCCCC3)CC1 | -11% | 1% | nt | 14% | 4.1% | ? | 4% | nt |

Quoted from the listing:
For StopGo reporter, CCOC(=O)N1CCC(NC(=O)Cn2cc3c(n2)CCCCC3)CC1 is listed with -11%
For NS1 function inh, CC1CCCCN1C(=O)CSc1nnc(Cc2ccccc2)n1C (stereo not drawn) is listed with 1%
For SARS PLP yeast, COc1ccc(C(C(=O)Nc2ccc(C(C)C)cc2)N(Cc2ccco2)C(=O)CC2NC(=O)NC2=O)cc1 (stereo not drawn) is listed with 1%
For Cruzain inh noDet, COc1ccc(Cn2nnnc2C(c2ccccc2Cl)N2CCN(C3CCCC3)CC2)cc1 (stereo not drawn) is listed with -10%
For StopGo reporter, COc1cc(CCC(=O)Nc2cnc3ccccc3c2)cc(OC)c1OC is listed with -10%
For RE007 growth inh, CCCC(=O)NCc1ccccc1Cl is listed with -3%

(listing goes on)
| item | smiles | StopGo reporter | Cruzain inh noDet | Lassa entry inh | SARS PLP yeast | Cruzain inh Det | NS1 function inh | RE007 growth inh | MARV entry inh |
| --- | --- | --- | --- | --- | --- | --- | --- | --- | --- |
| 31 | Cc1cc(NC(=O)CN2CC3CC(C2)c2cccc(=O)n2C3)nc2c1c(=O)oc1ccccc12 (stereo not drawn) | nt | -10% | nt | -2% | -3.9% | -3% | nt | nt |
| 32 | CC1(C)C2CC=C(/C=N/NC(=O)C3CC3)C1C2 (stereo not drawn) | 4% | nt | 4% | -5% | nt | 11% | -16% | 13%[46.1 µM] |
| 33 | CCCCCCC1CC(/C(C)=N\NC(N)=O)OC1=O (stereo not drawn) | 6% | -7% | -14% | 41% | -1.3% | 8% | 22% | ? |
| 34 | Cc1ccc(S(=O)(=O)Oc2ccccc2N2C(=O)C3CC=CCC3C2=O)cc1 (stereo not drawn) | -2% | -3% | 11% | -8% | 5.6% | -10% | 7% | 3% |
| 35 | CC(C)c1ccc(N2C(=O)CSC23C(=O)N2CCCc4cccc3c42)cc1 (stereo not drawn) | 0% | 3% | -1% | 2% | -4.4% | -1% | -3% | 8% |
| 36 | COc1ccccc1NC(=O)c1sc2nc(C)c(C(=O)Nc3ccc(C)cc3C)c(-c3ccc(C)o3)c2c1N | -18% | -4% | ? | nt | -2.4% | nt | nt | -20%[46.1 µM] |
| 37 | Cc1ccc(S(=O)(=O)n2nccc2-c2c(-c3ccccc3)noc2C)cc1 | -26% | nt | ? | 0% | nt | -6% | 5% | ? |
| 38 | Cc1ccc(/C=N/NC(=O)c2nnn(-c3nonc3N)c2-c2ccc3c(c2)OCO3)s1 | -2% | nt | nt | 12% | nt | 1% | -3% | nt |
| 39 | CCN(c1ccccc1)S(=O)(=O)c1cccc(C(=O)NCc2cccnc2)c1 | ? | nt | 11% | 0% | nt | nt | -21% | -10% |
| 40 | Cn1c(C(=O)N2CCCC(C(=O)NCc3ccccc3)C2)cc2sccc21 (stereo not drawn) | -17% | nt | 5%[46.1 µM] | -5% | nt | -3% | 2% | -15%[46.1 µM] |
| 41 | CC(=O)CC(C)(C)NC(C)=S | -10% | nt | -6% | 0% | nt | 7% | 1% | -16% |
| 42 | Cc1ccc(NP(=O)(c2ccc(N(C)C)cc2NC(=O)c2cccs2)N2CCOCC2)cc1 (stereo not drawn) | 0% | ? | 24% | 16% | -7.8% | 10% | -2% | ? |
| 43 | O=c1c2c(nc3cc(-c4cccc(Cl)c4)[nH]n13)CCC2 | 7% | -4% | ? | 3% | 0.5% | -3% | 15% | ? |
| 44 | CCn1c(SCC(=O)Nc2cc(C)on2)nnc1-c1ccco1 | -21% | -6% | 0% | -6% | 6.4% | 6% | -7% | 1% |
| 45 | O=C(Nc1ccc(Cl)c(S(=O)(=O)N2CCOCC2)c1)C1=NN(c2ccccc2)C(=O)CC1 | -21% | nt | ? | 7% | nt | nt | -2% | -31% |
| 46 | O=C1c2cccc3cc(Br)cc(c23)C(=O)N1Nc1ccc(Br)cc1 | 6% | ? | 3% | -9% | 0.7% | 10% | 8% | ? |
| 47 | COc1cccc(C(=O)NN2CC(O)=C(c3nc(C)cs3)C2=N)c1 | 7% | nt | nt | 0% | nt | 1% | -11% | nt |

Results in NS1 function inh, MARV entry inh and Lassa entry inh, for some of the entries so far:
item	SMILES	NS1 function inh	MARV entry inh	Lassa entry inh
42	Cc1ccc(NP(=O)(c2ccc(N(C)C)cc2NC(=O)c2cccs2)N2CCOCC2)cc1 (stereo not drawn)	10%	?	24%
43	O=c1c2c(nc3cc(-c4cccc(Cl)c4)[nH]n13)CCC2	-3%	?	?
44	CCn1c(SCC(=O)Nc2cc(C)on2)nnc1-c1ccco1	6%	1%	0%
